# AID504770 = growth inhibitors of E. coli YBA685 in a screen for V. cholerae RctB (chromosome II replication) inhibitors; E. coli YBA685 rctB-dependent plasmid, OD600 growth, 3 h; stronger effect = lower value; z-score (concentration not given with the values); 130,000 compounds, 0.27% hits; AID 504770;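 active = z-score under -2 on both plates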;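 note: wells of about 30 µL received 100 nL stock; score is relative to mean and SD of the test wells; the first replicate is given; strong numbers were not always called active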
# Ba CapD inh = CapD enzyme inhibition | 140,000 compounds, 0.23% hits | purified CapD enzyme, fluorescence intensity read-out; stronger effect = lower value; some hits fall short of the stated cut | AID 492967 | z-score (concentration not given with the values);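 active = z-score under -4 in either of two replicates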;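 note: stock transfer was 100 nL into about 40 µL; score is relative to mean and spread of the plate; one replicate is shown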
# Active calls of the source: *; . = not tested or not shown. This is a subset (hit frequency here may not be typical).
# The line under a structure holds: AID504770	Ba CapD inh
O=C(O)CSCC(=O)N1CCN(c2ccnc3cc(Cl)ccc23)CC1
 : 1.45	0.43
Cc1cccc2c1nc1s/c(=C\c3c(-c4ccccc4)n(C)c4ccccc34)c(=O)n12
 : .	0.11
O=C(Cn1cnc2sccc2c1=O)NC(=O)NC1CCCC1
 : 0.05	.
OCCn1c(-c2ccc(-c3ccccc3)cc2)csc1=Nc1ccccc1
 : 0.1	0.13
c1ccc(-c2ncc(-c3cnccn3)c(-c3ccncc3)n2)nc1
 : .	0.23
O=S(=O)(c1ccccc1)c1cnn(-c2ccccc2)c1-c1ccc(F)cc1
 : .	-0.285
O=C(O)CN1C(=O)/C(=c2/sc3nc4ccccc4n3c2=O)c2cc(Br)ccc21
 : -0.6	-0.895
Cc1cc(CNC(=O)COC(=O)C2CC3CCCC(C2)C3=O)cc(C)c1O (centres undefined)
 : -0.5	.
Cc1ccc(S(=O)(=O)Nc2cc3c4c(oc3c3ccccc23)CC(C)(C)CC4=O)cc1
 : .	-0.365
CC(=O)N1CCSc2cc(S(=O)(=O)Nc3cccc(C)c3)ccc21
 : -0.15	-0.805
O=C(CCC(=O)c1ccccc1)Nc1cccnc1
 : -0.95	.
OCCc1ccc(-c2ccc(Cl)cc2)o1
 : -0.25	0.77
O=C(O)COCCn1cc(-c2ccc(Cl)cc2)cn1
 : .	-0.305
COc1ccc(Nc2cc(C(=O)NC3CCCCC3)c3ccccc3n2)c(OC)c1
 : 1.8	2.18
O=C(N/N=C/c1ccc(-c2ccc(S(=O)(=O)Nc3ncccn3)cc2)o1)C12CC3CC(CC(C3)C1)C2
 : 1.6	.
Cc1cc(C)c2nc(N3CCCN(C(=O)c4ccco4)CC3)c(C#N)cc2c1
 : 0.3	.
O=C(Cc1ccccc1)Nn1c(SCC(=O)c2ccc(F)cc2)nc2ccccc2c1=O
 : .	-0.5
O=C(Nc1ccccc1C(=O)NCCc1ccccc1)c1ccno1
 : 1.55	.
COc1cccc(CCOC(=O)NNC(=O)C2CN(C)CCN2C)c1 (centres undefined)
 : .	0.125
O=C(O)Cc1ccc(F)cc1
 : .	0.235

# A stretch taken from the entries so far, for reference:
# The line under a structure holds: AID504770	Ba CapD inh
O=C(O)CSCC(=O)N1CCN(c2ccnc3cc(Cl)ccc23)CC1
 : 1.45	0.43
Cc1cccc2c1nc1s/c(=C\c3c(-c4ccccc4)n(C)c4ccccc34)c(=O)n12
 : .	0.11
O=C(Cn1cnc2sccc2c1=O)NC(=O)NC1CCCC1
 : 0.05	.
OCCn1c(-c2ccc(-c3ccccc3)cc2)csc1=Nc1ccccc1
 : 0.1	0.13
c1ccc(-c2ncc(-c3cnccn3)c(-c3ccncc3)n2)nc1
 : .	0.23

# Other structures follow.
# The line under a structure holds: AID504770	Ba CapD inh
CNC(=O)c1ccc(C(C)(C)C)cc1
 : 0.1	0.015
O=C(NCC1CCCO1)c1ccc(F)c(F)c1 (centres undefined)
 : -0.4	-0.27
CC1Cc2cc(C(=O)NCC(c3ccco3)N3CCCC3)ccc2N1S(C)(=O)=O (centres undefined)
 : -0.05	.
CSc1sc(C(N)=O)cc1C#N
 : -1.1	-0.11
COc1cc(-c2nc3ccccc3c(=O)n2CC(=O)Nc2cccc(C)c2)cc(OC)c1OC
 : .	11.9
Cc1cc(C(=O)C(C)OC(=O)CN2CCSC2=O)c(C)n1-c1ccc(Cl)cc1 (centres undefined)
 : -0.35	.
CN(C)/C=C/c1c([N+](=O)[O-])nnn1-c1cc(C(F)(F)F)cc(C(F)(F)F)c1
 : .	-0.055
CC1CCCCN1C(=O)CSc1nc2ccccc2[nH]1 (centres undefined)
 : -0.25	.
Cc1ccc(OCc2nn(C3CC(=O)C4OCC3O4)c(=S)n2C)cc1C (centres undefined)
 : .	-0.265
COC(=O)c1cc(C)nc2c1c(=O)n(C)c(=O)n2C
 : -0.55	40
C=C1C2(C(=O)Nc3ccc(Br)cn3)CCC(C2)C1(C)C (centres undefined)
 : 0.4	-0.03
CC(C)C(NS(=O)(=O)c1ccccc1)C(=O)Nc1ccccc1 (centres undefined)
 : -0.6	0.095
Cc1cc(-c2nn(C)c(=O)c3ccccc23)cc(C)c1OC(=O)Nc1ccc(OC(F)(F)F)cc1
 : .	0.45
CCc1nc2sc3c(c2c(=O)[nH]1)CCC3
 : -0.95	-0.495
Cc1ccc(C2CC(c3cccs3)=NN2C(=O)CSc2nnc(CNC(=O)c3ccco3)n2Cc2ccccc2)cc1 (centres undefined)
 : .	11.3
NS(=O)(=O)c1ccc(N=C2C(=O)Nc3ccccc32)cc1
 : 0.5	1.68
COc1ccc(C2C(C(=O)N3CCN(c4ccc(OC)cc4)CC3)c3ccccc3C(=O)N2C)cc1 (centres undefined)
 : 0.75	-0.205
CC(=O)Nc1nc(-c2cccs2)nc2c1c(=O)oc1ccccc12
 : -0.15	.
CCOC(=O)c1c(C)oc2c1c(C=NCCCN1CCOCC1)c(O)c1ccccc12
 : -1.5	.
CC(C)(C)c1cc2oc3c(c2c(C=NCc2ccncc2)c1O)CCCC3
 : -0.15	-0.925
Nc1cc(Nc2ccccc2)ccn1
 : -1.15	-0.875
CCC(=O)N/N=C/c1ccc(-c2ccc(Cl)cc2)o1
 : -0.4	.
O=C1c2ccccc2-c2nc(=O)c3c4c(sc3n21)CCCC4
 : -0.35	0.855
CCOC(=O)C(Cc1ccc(Cl)cc1)NC(=O)OCCc1cccc(C)c1 (centres undefined)
 : .	-0.475
c1ccc(Sc2ncnc3sc4c(c23)CCCC4)cc1
 : 0.35	-0.21
CCOc1ccc(NC(=O)CSc2nc3ccccc3c(=O)n2CC2CCC(C(=O)NCC3CCCO3)CC2)cc1 (centres undefined)
 : .	-0.275
CCn1c2ccccc2c2cc(CN3CCN(S(=O)(=O)c4c(C)cccc4Cl)CC3)ccc21
 : .	13
CCC(c1nnc(Sc2nc(C)nc3sc4c(c23)CCCC4)n1CCN1CCOCC1)N(C)C (centres undefined)
 : 1.9	.
O=C(O)c1c(CNCc2cccnc2)c2ccccc2n1Cc1ccccc1
 : 0.2	-0.085
CC(=O)N1CCN(c2nc(-c3ccccc3)c3ccccc3n2)CC1
 : -0.55	-0.115
CN1C2CCC1CC(NS(=O)(=O)c1ccc(Cl)cc1)C2 (centres undefined)
 : -0.35	0.175
CCCNS(=O)(=O)c1cc2c3c(c1)C(C)C(=O)N3CCC2 (centres undefined)
 : 1.6	.
Nc1nc(Nc2ccc(Cl)cc2)sc1C(=O)c1cccc([N+](=O)[O-])c1
 : .	-0.545
N#CCSc1nnc(-c2ccc(Br)cc2)n1C1CCCCC1
 : 0.3	.
CC(=NCCN1CCN(C(=O)c2ccccc2)CC1)c1c(C(F)(F)F)[nH]n(-c2nc3ccccc3s2)c1=O
 : .	-0.085
Cn1c(=O)oc2cc(S(=O)(=O)CCC(=O)NC3CCN(Cc4ccccc4)CC3)ccc21
 : -0.9	-1.02
CCCc1nn(-c2ccccc2)c2c1C(c1ccc(OC)cc1)C(C#N)=C(N)O2 (centres undefined)
 : -0.3	.
NC(=O)C(Cc1c[nH]c2ccccc12)NC(=O)OCc1ccc(OC(F)(F)F)cc1 (centres undefined)
 : .	0.25
CCCCCCCC1CC(CSc2ncn[nH]2)OC1=O (centres undefined)
 : -0.45	0.04
CC(C)CN(CC(C)C)C(=O)CSc1ncn[nH]1
 : -0.95	.
COc1ccccc1NC(=O)c1c(N)n[nH]c1C
 : 0.6	.
Cc1ccc(C2=NN=C(NC(=O)CSc3nnc(C)s3)SC2)cc1
 : -0.8	-3.42
CN(C(=O)CSc1nnc(C(F)(F)F)n1N)C1CCS(=O)(=O)C1 (centres undefined)
 : -0.5	.
NC(=O)c1nnn(-c2ccccc2)c1N
 : 0.1	-0.055
Cc1ccc(C(=O)OCC(=O)N2CCCC2)c(O)c1
 : -0.05	.
Cc1c(NC(=O)c2nn3c(c2Cl)NC(c2cccs2)CC3C(F)(F)F)c(=O)n(-c2ccccc2)n1C (centres undefined)
 : .	-0.515
CCOC(=O)C1Cn2c(nc3c(c2=O)C(C)(CC)Cc2ccccc2-3)S1 (centres undefined)
 : .	8.19
O=C(C1c2ccccc2C(=O)N2CCc3ccccc3C12)N1CCN(Cc2ccccc2)CC1 (centres undefined)
 : 1.9	-0.53
O=C(CCSc1ccccc1)NC12CC3CC(CC(C3)C1)C2
 : -0.1	0.13
O=C(c1cccc(Br)c1)N1CCc2c([nH]c3ccccc23)C1c1ccc([N+](=O)[O-])cc1 (centres undefined)
 : .	-0.255
O=C(CN1CCCCC1)N1CCCc2ccccc21
 : 1.25	.
COc1cc(C2C(C(=O)OC(C)C)=C(N)OC3=C2C(=O)CCC3)ccc1OCc1ccc([N+](=O)[O-])cc1 (centres undefined)
 : .	0.61
O=C(NC12CC3CC(CC(C3)C1)C2)c1cccs1
 : -0.15	1.22
O=C1C2C3C=CC(C2C(=O)N1Cc1ccc(F)cc1)C1C(=O)N(Cc2ccc(F)cc2)C(=O)C31 (centres undefined)
 : .	-0.12
Cc1[nH]c2ccccc2c1CCC#N
 : .	0.74
OCc1ccccc1CNC1CCCCC1
 : -0.8	0.275
O=C(c1ccc(Br)cc1)N1N=C(c2ccccc2)CC1(O)C(F)(F)F (centres undefined)
 : .	0.595
COc1ccc(C2CC(=O)NN2)cc1OC1CCCC1 (centres undefined)
 : 0	0.69
CCOC(=O)Cn1c(-c2cccnc2Cl)nc2cc(Cl)c(Cl)cc21
 : .	0.755
CNS(=O)(=O)c1cccc(C(=O)O)c1
 : -1.35	.

# Looked up one by one from the entries so far:
# The line under a structure holds: AID504770	Ba CapD inh
O=C(CCSc1ccccc1)NC12CC3CC(CC(C3)C1)C2
 : -0.1	0.13
O=C(CN1CCCCC1)N1CCCc2ccccc21
 : 1.25	.
Cc1ccc(C(=O)OCC(=O)N2CCCC2)c(O)c1
 : -0.05	.

# Next compounds:
# The line under a structure holds: AID504770	Ba CapD inh
O=C1NCN(c2ccccc2)C12CCN(c1nnnn1-c1ccccc1)CC2
 : -0.65	.
Cc1ccccc1-n1c(SCCc2ccccc2)nc2ccccc2c1=O
 : 0.7	-0.855
CCN(Cc1ccccc1)/C(=N/O)c1ccc(OC)cc1
 : -0.1	.
COCCNC(=O)c1ccc(CS(=O)(=O)c2ccc(OC)cc2)o1
 : -0.25	0.675
Cn1c(=O)c(Sc2ccccc2)c(O)c2ccccc21
 : -1.5	1.25
Cc1ccc2nc(NC3=NC(C(=O)Nc4ccccc4)CC(=O)N3)nc(C)c2c1 (centres undefined)
 : .	0.49
Cc1nc2cc(N3CCN(C)CC3)c(NC(=O)C(C)(C)C)cc2c(=O)n1Cc1ccccc1
 : -0.05	.
CC(C)(O)C#Cc1ccc(/C=N/O)cc1
 : .	0.555
Cc1cccc(-c2noc(CCC(=O)NC(C)(C)C)n2)c1
 : 2.1	0.7
CC(=O)N(Cc1cccs1)C1(C(=O)NC2CCCC2)CCCCC1
 : 0.6	0.03
CCOC(=O)c1ccccc1NC(=O)c1ccc(N2CCCC2=O)cc1
 : -0.45	.
COc1cc(Br)c(O)c(C=NCc2ccc(Cl)cc2)c1
 : .	-1.1
Cc1ccnc(SCC(=O)c2cccs2)n1
 : -0.4	.
O=C(Oc1ccnc2cc(Cl)ccc12)N1CCCCC1
 : -0.05	.
Nc1ncc(N=Nc2cccc(C(F)(F)F)c2)s1
 : -0.15	.
CCN(C(=O)c1cc2cc3ccc(C)cc3nc2s1)c1ccc(C)c(C)c1
 : -0.4	7.75
Cc1cn(CCC(=O)Nc2nn(C)c3ccccc23)c2ccccc12
 : -0.4	-0.65
CCOc1ccc(N2C(=O)C(C)SC23C(=O)N(CN2CCc4ccccc4C2)c2ccccc23)cc1 (centres undefined)
 : .	-0.19
COC(=O)C(Cc1c[nH]c2ccccc12)N=Cc1ccccc1 (centres undefined)
 : .	-0.25
OCCN(CCO)CC(O)Cn1c2ccc(Cl)cc2c2cc(Cl)ccc21 (centres undefined)
 : .	1.85
CCOC(=O)CSc1nc(NC2CCCCC2)c2ccccc2n1
 : .	24.2
CCC1(C)Cc2nc3nc(SCC(=O)OC)n(Cc4ccccc4)c(=O)c3cc2CO1 (centres undefined)
 : -0.25	0.86
CC1CCCCN1C(=O)c1ccc(C(=O)c2ccccc2)cc1 (centres undefined)
 : -0.7	.
N#Cc1c(NCc2ccccc2)ncc2c1Nc1ccccc1C2
 : 0	42.9
CCCCCCCOc1ccc(C(=O)O)cc1
 : .	0.25
O=C(NCCCO)c1cn2c(n1)sc1ccccc12
 : .	-0.035
COc1cc(COC(=O)NC(Cc2c[nH]c3ccccc23)C(=O)OC(C)(C)C)cc(OC)c1OC (centres undefined)
 : .	0.825
CN1C(=O)/C(=C2/Sc3ccccc3N2C)SC1=Nc1ccc(O)cc1
 : .	-0.08
O=C(O)c1cccc(S(=O)(=O)NCC(F)(F)F)c1
 : 0.45	.
Cc1c(C)c(C)c(C#CCO)c(C)c1C
 : -0.8	-0.55
CCN(CC)CCCNC(=O)c1ccc(Cn2c(=S)[nH]c3ccc(Br)cc3c2=O)cc1
 : .	-0.105
COc1ccc(CCNC(=O)Cn2c(Cc3ccccc3)nc3sc4c(c3c2=O)CCCC4)cc1OC
 : .	0.095
CC(=O)Oc1cc(C)c2c(=O)c(-c3csc(C)n3)coc2c1
 : -0.5	.
O=C(Nc1ccccc1Cl)c1cc2ccccc2oc1=O
 : -0.45	1.9
COc1ccc(S(=O)(=O)N2CCN(C(C)C(=O)NCc3ccccc3)CC2)cc1 (centres undefined)
 : -0.4	.
c1cc(-c2[nH]ncc2-c2ccncn2)ccn1
 : .	-0.14
CCOc1ccc(Nc2nc(NCCO)nc(N3CCOCC3)n2)cc1
 : .	-0.22
O=C(NC1CCc2ccccc2C1)c1cc2c(=O)oc3ccccc3c2s1 (centres undefined)
 : 0.9	0.02
COCCCNc1ccc(C(=O)N2CCC3(CC2)OCCO3)cc1S(=O)(=O)Nc1cc(F)ccc1F
 : .	0.04
